Bioassay records as filed in PubChem BioAssay.
Menin-MLL FL inh: inhibitors of human menin-MLL interaction, wild-type MLL peptide; Fluorescence polarization, fluorescein-MLL peptide displacement from menin; FP activity change, % at 61.4 µM; 290,000 tested, under 10 active; AID 1766; inconclusive = falling polarisation curve, or a change in total fluorescence; inactive = total fluorescence flat and polarisation flat or rising; no compound was filed as active; the % refers to the polarisation; negative = inhibition;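 further: % of control where 0% means no effect; inhibitors lower the polarisation; unlabelled MLL peptide was the positive control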
ClpP mod: qHTS Assay for Activators of ClpP. ATP-dependent Clp protease proteolytic subunit (Bacillus subtilis (strain 168)), P80244. purified B. subtilis ClpP, FRET peptide cleavage, 20 min. Potency, µM (series often up to 57.5 µM), for inactives: at the top dose activity change, negative = active. 340,000 tested, 1.9% active. AID 651965, 2013; active = well fitted falling curve with a large enough effect; inconclusive = small, poorly fitted or top-dose-only effect; inactive = no such curve, though single readings can be large or run the other way; further: potency means the concentration at half of the fitted maximal effect; the source files actives as falling curves though it sought activators and does not explain the sign; nearly all actives have a fitted effect of over 65% in size; many hits overshoot -100%
Target sequence (P80244 whole entry, looked up): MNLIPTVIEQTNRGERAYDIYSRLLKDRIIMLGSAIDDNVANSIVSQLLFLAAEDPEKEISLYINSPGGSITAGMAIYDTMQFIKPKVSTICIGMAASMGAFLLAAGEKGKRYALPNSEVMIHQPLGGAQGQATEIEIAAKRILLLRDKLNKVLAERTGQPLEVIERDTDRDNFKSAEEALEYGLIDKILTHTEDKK
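Purified B. subtilis ClpP, 10 microg/mL final in Tris/HCl pH8 with KCl, BSA, glycerol and Tween-20, cleaved an Abz/nitrotyrosine-quenched decapeptide. Fluorescence (ex 320, em 430) was read at 0 and 20 min at room temperature. Delta was normalized to 5.8 microM ADEP and DMSO/no-enzyme controls.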
Sfp PPTase inh: blocks B. subtilis Sfp PPTase activity. Q9F4F7. AID 1490. Biochemical Sfp PPTase activity, qHTS. 310,000 tested, 3.5% active. Potency, µM, inactives show max response, negative = inhibition, hits mostly inhibitors; active means well fitted inhibition curve with a large enough effect; inconclusive means small, poorly fitted or top-dose-only effect, or another doubt; inactive means no such curve, though single readings can be large or run the other way;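 further: the enzyme is Sfp with the accession as filed and its product quenches rhodamine fluorescence; potency means the concentration at half of the fitted maximal effect; 0% = enzyme reaction without inhibitor and -100% = no enzyme wells; top concentration of the series not given in the record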
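Reaction rates are the 30-min fluorescence difference (ex 525, em 598 nm) in wells containing 15 nM Sfp, 5 uM rhodamine-CoA and 12.5 uM BHQ-2-YbbR at pH 7.6 with 10 mM MgCl2.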
TRPV1 PAM: enhances activation of the human vanilloid receptor TRPV1; Q8NER1; AID 540277; potentiation, % at 8.33 µM; TRPV1-expressing cells, Fluo-8 calcium influx, capsaicin EC20 potentiation; host cell line not named in the record; control for the full effect not named in the record; 320,000 tested, 0.02% active; active means potentiation above 80%; inconclusive means 30% to 80%; inactive means below 30%; further: 0% is about no effect
Target sequence (Q8NER1 whole entry, looked up): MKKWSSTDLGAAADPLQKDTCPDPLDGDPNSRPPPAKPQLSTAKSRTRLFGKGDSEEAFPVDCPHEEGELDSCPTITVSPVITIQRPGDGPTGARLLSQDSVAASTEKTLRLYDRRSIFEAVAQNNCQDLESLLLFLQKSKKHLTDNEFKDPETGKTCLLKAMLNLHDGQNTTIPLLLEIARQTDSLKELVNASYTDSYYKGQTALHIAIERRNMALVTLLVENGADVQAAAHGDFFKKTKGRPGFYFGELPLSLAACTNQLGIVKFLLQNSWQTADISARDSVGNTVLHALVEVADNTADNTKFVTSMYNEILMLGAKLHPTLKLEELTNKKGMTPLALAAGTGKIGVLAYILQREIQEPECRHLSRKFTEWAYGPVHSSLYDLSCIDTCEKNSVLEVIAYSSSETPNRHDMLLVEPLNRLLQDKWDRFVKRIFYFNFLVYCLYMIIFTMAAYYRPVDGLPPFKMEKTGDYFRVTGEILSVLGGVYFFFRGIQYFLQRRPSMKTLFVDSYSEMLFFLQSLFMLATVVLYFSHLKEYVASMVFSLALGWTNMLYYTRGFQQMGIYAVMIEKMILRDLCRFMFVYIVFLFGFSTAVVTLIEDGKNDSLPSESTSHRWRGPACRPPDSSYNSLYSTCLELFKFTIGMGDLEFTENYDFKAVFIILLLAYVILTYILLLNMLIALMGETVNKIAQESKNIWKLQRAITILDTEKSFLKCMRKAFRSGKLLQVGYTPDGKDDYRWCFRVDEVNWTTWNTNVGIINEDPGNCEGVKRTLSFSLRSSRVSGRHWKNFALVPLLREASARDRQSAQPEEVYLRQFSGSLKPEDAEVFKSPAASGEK
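Cells expressing TRPV1 were dye-loaded with Fluo-8 and read kinetically: 10 s baseline, 3 min after compound (agonist portion), then 2 min after EC20 capsaicin (allosteric enhancer portion). Calcium-bound dye fluorescence at 480/520 nm.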
D2 PAM: potentiates the human D2 dopamine receptor allosterically | DiscoveRx D2 beta-arrestin cells, luminescence, 90 min; 100% = 57 uM dopamine signal | potentiation, % (concentration not given with the values) | AID 624464 | 360,000 tested, 0.23% active; active = potentiation of 50% or more; inconclusive = 30% to 50%; inactive = 30% or less;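 further: compound concentration not given in the record; tested on top of an EC20 dose of dopamine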
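D2 cells co-treated with compound plus 50 nM dopamine (EC20) for 90 min at 37 deg C to detect potentiation. Beta-arrestin recruitment was read as enzyme-fragment luminescence after 1 h at ambient temperature. Full response was set by 57 uM dopamine.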
gsp antag: antagonizes gsp, the McCune-Albright syndrome mutation; AID 624288; Potency, µM (titrated, usually from 76.9 µM), for inactives: top-dose activity change, negative = inhibition, usual class: inhibitors; gsp-mutant cells, cAMP HTRF, 30 min; control for the full effect not named in the record; 340,000 tested, 0.4% active; active = falling curve of any shape with a large fitted effect; inconclusive = falling curve, mostly with a smaller effect; inactive = flat or rising curve; cell line not stated here;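 further: intracellular cAMP measured with PDE inhibitor Ro 20-1724 present during compound exposure; potency means the concentration at half of the fitted maximal effect; on the % scale 0 is the no-effect control and ±100 the full control effect; nearly all actives have a fitted effect of over 65% in size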
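G418-selected cells were plated in DMEM/10% FBS for 16-24 h at 37C, then treated with compounds plus the PDE inhibitor […] (300 uM solution added) for 30 min at 37C. Intracellular cAMP was measured by HTRF after 30 min lysis at room temperature.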
gsp agonist: agonists of gsp mutant (McCune-Albright syndrome). 340,000 tested, 0.13% active. Potency, µM (top dose mostly 76.9 µM), for the others: top-dose activation (cAMP increase), hits mostly activators. gsp mutant cells, cAMP HTRF, 30 min; control for the full effect not named in the record; active = well fitted activation curve with a large enough effect; inconclusive = small, poorly fitted or top-dose-only effect, or another doubt; inactive = no such curve, though single readings can be large or run the other way; cell line not stated here;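 further: phosphodiesterase inhibitor Ro 20-1724 added with compounds to block cAMP breakdown; potency means the concentration at half of the fitted maximal effect; nearly all actives have a fitted effect of over 60% in size; about a fifth of the inactives were tested at one dose only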
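Cells stably selected in G418 were plated at 2000/well, grown 16-24 hr, then given compounds in DMSO with the PDE inhibitor […] (300 uM solution added) for 30 min at 37C; cAMP was read by HTRF.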
An asterisk follows results filed as active; ? = inconclusive; · = not tested or not shown; & = joins results of further samples; ! = not active in a repeat; [ ] = remark or other dose.

SMILES	Menin-MLL FL inh	ClpP mod	Sfp PPTase inh	TRPV1 PAM	D2 PAM	gsp antag	gsp agonist
CC(C)OCCCNC(=O)c1ccccc1Oc1ccccc1	2.6	-0.6%	2%	-26	-3	-9%	-9%
COc1cccc(/C=N/NC(=O)Cn2nc([N+](=O)[O-])cc2C)c1	2.4	1.2%	-2%	-13	-14	-1%	4%[15.4 µM]
Cc1ccc(O)c(C(CC(=O)NC2CCCCC2)c2ccccc2)c1 (stereo not given)	0.2	·	18%	-11	-2	?	?
CCOc1cc(/C=C/C(=O)O)ccc1OCCO	0.9	?	-4%	-1	-2	-1%	-17%
Cc1cc(N2CCN(C)CC2)nc2ccc(NC(=S)N3CCCCCC3)cc12	-1.7	7.3%	-9%	2	-18	10%	0%
Cc1c(NC(=O)CCCN2C(=O)c3cccc4cccc(c34)C2=O)c(=O)n(-c2ccccc2)n1C	-3.1	3.6%	7%	17	-19	-7%	21%
N#CCCN(Cc1ccccc1)S(=O)(=O)c1cccs1	0.1	0.9%	2%	13	-3	-2%	28%
Cc1cc(C)c2c(CN3CCCCC3C)cc(=O)oc2c1 (stereo not given)	-5.1	·	-8%	-9	-16	-17%	-44%[inhibitor]
CCC(=O)NCCc1cc2cc(C)c(C)cc2[nH]c1=O	-1.1	16µM*	-2%	-3	-5	5%	-7%
Cc1n[nH]c(=O)nc1NCc1ccccc1Cl	1.7	-0.8%	18%	2	0	8%	9%
Cc1ccccc1CSc1nc2c(c(=O)[nH]1)CCC2	0.1	-1.2%	15%	6	-5	8%	-51%[inhibitor]
O=C(COC(=O)C1CC2CCCC(C1)C2=O)Nc1ccc(Cl)cn1 (stereo not given)	·	2.0%	·	19	-1	10%	10%
COc1ccc(N2CCN(Cc3cc(=O)oc4ccc(Cl)cc34)CC2)cc1	-1.6	-2.9%	16%	-1	7	5%	12%
c1ccc(SCc2nc(-c3ccncc3)n[nH]2)nc1	-1.1	·	-8%	13	-4	-5%	0%
Clc1ccc(-n2ncc3c(N4CCCC4)ncnc32)cc1	3.7	-2.2%	3%	5	8	-12%	9%
COc1ccc(-c2n[nH]c(C(F)(F)F)c2-c2cc3ccccc3o2)c(O)c1	0.1	25µM*	5%	-18	7	-24%	-2%
CC(=O)OCC(=O)N1CCN(c2ccc([N+](=O)[O-])cc2)CC1	0.7	1.3%	25%	-1	-11	-1%	-67%[inhibitor]
COCCN(CCOC)C(=O)C12CCC(C)(C(=O)C1)C2(C)C (stereo not given)	-1.1	1.2%	12%	4	-1	14%	-6%
CC(C)(C)OC(=O)N[C@@H](CCCCNC(=O)OCc1ccccc1)c1nnc([C@H](CCCCNC(=O)OCc2ccccc2)NC(=O)OC(C)(C)C)o1	0.1	-0.2%	11%	3	-14	0%	-30%[inhibitor]
Cc1ccc(S(=O)(=O)NC(CC(C)C)C(=O)NCC(C)(C)N2CCOCC2)cc1 (stereo not given)	·	0.3%	·	6	-7	9%	-1%[15.4 µM]
CCOC(=O)c1ccc(/C=C2\c3ccccc3C(=O)N2c2ccccc2)cc1F	·	-4.1%	·	·	6	-13%	·
O=C(NC(NC(=S)N1CCOCC1)C(Cl)(Cl)Cl)c1cccc2ccccc12 (stereo not given)	5.1	-2.8%	4%	4	3	-10%	-47%[inhibitor]
O=C(NCc1ccc2c(c1)OCO2)c1cc(COc2c(F)cccc2F)on1	4.3	0.7%	13%	-12	20	-17%	14%
Cc1cc(F)ccc1NC(=O)Cn1c(C)csc1=O	·	0.9%	·	-1	-5	-5%	2%
Cc1[nH]c2ccccc2c1C(=O)CCl	2.7	2.9%	2%	13	24	0%	7%

The listing continues:
SMILES	Menin-MLL FL inh	ClpP mod	Sfp PPTase inh	TRPV1 PAM	D2 PAM	gsp antag	gsp agonist
CCOC(=O)CNc1nc(OCC#N)nc(N2CCOCC2)n1	-1.2	-1.3%	7%	6	-12	15%	-32%[inhibitor]
COC(=O)CSc1ncnc2scc(-c3ccccc3)c12	20	·	-25%	-22	2	-3%	-8%[15.4 µM]
CCCc1cc(=O)[nH]c(SCC)n1	-1.7	1.4%	-5%	·	-5	8%	-18%
COc1ccc(-c2noc(N3CCCC(C(=O)Nc4ccc(C(C)=O)cc4)C3)n2)cc1 (stereo not given)	·	0.7%	-14%	6	0	?	0%
CN1CCN(CCCNC(=O)c2ccc(CS(=O)(=O)c3ccc(Br)cc3)o2)CC1	1.1	-2.1%	7%	2	-1	-1%	9%
COc1ccc(C)cc1NC(=O)CCc1c(C)nn(-c2ccc(N3CCCCC3)nn2)c1C	2.7	0.0%&-2.4%	8%	-8	9	-2%	26%
O=C(COC(=O)Cc1c(Cl)cccc1Cl)Nc1ccccc1-c1ccccc1	·	-17%	1%	11	-16	-5%	10%
COc1cccc(NC(=S)N2CCn3cccc3C2c2cccnc2)c1 (stereo not given)	0.0	·	9%	4	2	-8%	-2%[15.4 µM]
COCCNC(=O)c1cc(-c2ccncc2)nc2ccc(S(=O)(=O)N3CCOCC3)cc12	-5.6	-1.1%	9%	2	-8	-7%	18%
O=C(CCn1c(=O)oc2ccccc21)Nc1cccc(Cl)c1	7.6	-0.2%	18%	-7	-9	-13%	11%
O=C1OCc2nc3cc4c(cc3c(-c3ccc(F)cc3)c21)OCO4	-1.9	4.0%	-1%	8	-12	-3%	-18%
CCc1noc(C)c1C(=O)OC(C)C(=O)c1c(C)[nH]c2ccccc12 (stereo not given)	·	-0.9%	·	-15	4	3%	?
O=C(COC(=O)CCc1c[nH]c2ccccc12)NCCc1ccccc1	·	-7.3%	·	1	6	12%	-3%
CCCC1c2ccc(C)n2CCN1C(=O)Nc1ccccc1Cl (stereo not given)	?	-25%	10%	1	-6	-8%	-3%
O=C(COC(=O)c1ccc2ccccc2c1)NCc1ccccc1	·	-3.2%	·	·	0	·	-51%[inhibitor]
Cc1csc(NC(=O)CSc2nccn2C)n1	-2.1	-1.6%	1%	-12	-6	7%	1%
O=C(NC1CC1)c1ccc(NS(=O)(=O)c2ccccc2)cc1	-4.2	-1.1%	15%	-5	-17	14%	22%
O=C(O)CCNC1C=CS(=O)(=O)C1 (stereo not given)	0.6	·	13%	-1	-3	18%	0%[15.4 µM]
O=C(COC(=O)c1cccs1)NCC1CCCO1 (stereo not given)	2.9	-0.5%	-10%	5	-4	1%	23%
CN(C)c1ccc(/C=c2/sc3n(c2=O)NC2(c4ccccc4)N(C)C(=O)N(C)C2(c2ccccc2)N=3)cc1 (stereo not given)	?	·	8%	3	·	·	·
O=C1C=CC(=O)c2c(O)c(N3CCN(CCO)CC3)c(Cl)c(O)c21	·	-3.0%	·	·	-32	?	28%
CCOc1ccc2ccccc2c1/C=N\NC(=O)c1ccc([N+](=O)[O-])cc1	2.1	-1.4%	11%	30	-12	6%	-5%[15.4 µM]
COc1ccc2cc(C(C)C(=O)NC3CCC(O)CC3)ccc2c1 (stereo not given)	0.0	·	7%	-3	-4	-1%	6%[15.4 µM]
COC(=O)c1ccc(NCc2cc(O)ccc2O)cc1	·	-1.8%	·	·	13	-7%	6%
COc1ccc(OC(=O)c2cc3ccccc3o2)cc1	2.0	2.1%	-12%	1	-4	12%	-12%

The listing continues.
SMILES	Menin-MLL FL inh	ClpP mod	Sfp PPTase inh	TRPV1 PAM	D2 PAM	gsp antag	gsp agonist
CCN(CC)S(=O)(=O)c1ccc(-c2nnc(SCC(=O)N3c4ccccc4CC3C)o2)cc1 (stereo not given)	-0.6	?	-13%	11	0	?	0%
O=c1c2c(n3cnnc3n1C1CCCCC1)-c1ccccc1CC21CCCCC1	5.6	-0.4%	-2%	-8	-4	-7%	-1%
CCOC(=O)C1(Cc2ccccc2)CCCN(Cc2cnn(CC)c2)C1 (stereo not given)	1.9	1.2%	19%	-7	-8	4%	-9%
CN(CC(=O)NC(=O)Nc1ccccc1F)Cc1ccccc1F	·	1.1%	·	·	-24	0%	-12%
COCCN(CCOC)C(=O)c1sc2nc(-c3ccccc3)cn2c1C	9.7	-0.1%	2%	1	-6	11%	-27%
Nc1ccc(C(=O)NNC(=O)C2COc3ccccc3O2)cc1[N+](=O)[O-] (stereo not given)	·	1.5%	·	-8	-4	4%	-16%[15.4 µM]
C=CCn1c(-c2cccc(Cl)c2)n[nH]c1=S	-2.7	-15%	9%	4	-9	8%	?
Cc1ccc(NC(=O)CN(C)C(=O)Cc2c[nH]c3ccccc23)cc1	·	1.0%	·	·	-8	-1%	-26%
COc1ccc(NC(=O)C2CCCN(S(=O)(=O)c3c(C)n[nH]c3C)C2)c(OC)c1 (stereo not given)	-0.2	0.7%	-9%	-10	-35	?	0%
O=C(NCCc1cccc(Cl)c1)c1cc([N+](=O)[O-])ccc1Cl	1.2	-4.4%	0%	-1	-10	-9%	-12%
Cc1cccc(C(=O)Nc2ccc(S(=O)(=O)N3CCOCC3)cc2)c1[N+](=O)[O-]	2.0	-0.2%	16%	-15	0	4%	-16%
Cc1ccccc1C(=O)N1CC(=O)Nc2ccc(F)cc2C1c1ccccc1 (stereo not given)	-7.6	·	7%	-9	1	-7%	-4%
CCOc1ccc(CCNC(=O)CSc2ncn[nH]2)cc1OCC	·	0.7%	8%	?	-7	14%	6%
Clc1ccccc1CNCc1ccncc1	-0.5	·	-5%	-3	1	8%	14%
CCC(=O)Oc1ccc2ccccc2c1CNC(=O)c1ccccc1	2.9	?	9%	0	-6	-1%	-11%
CCOc1ccc(NC(=O)CN(C)C(=O)Cc2ccsc2)cc1OCC	·	-2.4%	·	10	-3	1%	0%
COC(=O)CCCC1=CC2=C(c3ccccc3)C(=O)C(C)(OC(=O)C3CCCC3)C(=O)C2=CN1Cc1ccco1 (stereo not given)	?	-0.2%	56µM*!	-13	1	7%	·
O=C(COc1ccccc1Cl)NCCCNC(=O)c1ccncc1	-6.9	·	11%	?	2	4%	-28%
O=c1ccnc(Nc2ccc([N+](=O)[O-])cc2)[nH]1	·	·	·	·	-6	-3%	?
